# Compound activity: PubChem, National Center for Advancing Translational Sciences (NCATS)
# AmpC inh no det – blocks E. coli AmpC beta-lactamase in absence of detergent. AmpC nitrocefin hydrolysis, absorbance 480 nm, no detergent; potencies from a single point are estimates. Potency, µM (titrated, usually from 28.7 µM), for the others: at the highest dose activity change, negative = inhibition. 71,000 tested, 1.8% active; active = falling curve, for most hits resting on a single point; inconclusive = weak or doubtful change; inactive = flat or rising curve; note: % of control where 0% means no effect; about half of the hits show no inhibition at the top dose; a quarter of the inactives give rising signals
# Target sequence (P00811 whole entry, looked up): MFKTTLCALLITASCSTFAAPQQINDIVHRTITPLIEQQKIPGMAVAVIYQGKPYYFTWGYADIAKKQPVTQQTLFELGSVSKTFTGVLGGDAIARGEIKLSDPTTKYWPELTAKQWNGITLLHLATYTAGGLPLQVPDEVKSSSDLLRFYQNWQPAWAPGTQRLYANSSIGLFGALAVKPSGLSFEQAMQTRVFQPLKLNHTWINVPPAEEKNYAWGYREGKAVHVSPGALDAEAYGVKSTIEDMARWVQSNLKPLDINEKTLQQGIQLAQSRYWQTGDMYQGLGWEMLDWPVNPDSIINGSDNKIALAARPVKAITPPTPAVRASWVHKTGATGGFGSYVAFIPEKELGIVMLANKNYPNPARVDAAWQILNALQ
#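 Enzyme, pH 7.0 phosphate. Compound titrations were pre-incubated with AmpC for 15 min at room temperature before nitrocefin (stock 800 uM) addition; product formation was recorded at 480 nm every 20 s for 4 min.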
# * marks the source's active call; other numbers are inactive results; [ ] = dose if it differs, or a comment. Potency is the fitted concentration of half-maximal effect. The list is partial; rates above refer to the full screens.
SMILES,AmpC inh no det
CCc1cc2c(CN3CCN(CCO)CC3)cc(=O)oc2cc1O,10%
Cc1cc(N)ccc1-n1c(C)ccc1C,8%
CCCc1cc(-n2ccnc2)n2c(nc3ccccc32)c1C#N,2%
COc1ccc(C(=O)CSc2nnc(-c3cnccn3)n2Cc2ccco2)cc1,96%
CC(=O)N1CCC[C@@]2(CCN(C(c3ccccc3)c3ccccc3)C2)C1,36%
Cc1cc(NC(=O)CCN2CCC(C(N)=O)CC2)ccc1Br,4%
O=C(OC(C(=O)NCc1cccs1)c1ccccc1Cl)c1ccco1 (centres undefined),-21%
Cc1ccc(-c2nc(-c3nccc4ccccc34)oc2-c2ccccc2)cc1,3%[5.75 µM]
CCCCOC(=O)CN1C(=O)c2ccc(C(=O)OCCCC)cc2C1=O,1%
Brc1cnc(N2CCCC2)nc1N1CCOCC1,12%
COc1ccc(CNc2ncnc3ccc(-c4ccc5c(c4)OCO5)cc23)c(OC)c1,4%
COc1cccc(N2CCN(C3CC(=O)N(c4ccc(C)c(Cl)c4)C3=O)CC2)c1 (centres undefined),97%
CC(=O)OCC(=O)[C@@]1(O)CC[C@@H]2[C@H]3CCC4=CC(=O)CC[C@]4(C)[C@]3(F)[C@@H](O)C[C@@]21C,11%[12.8 µM]
Cc1ccc(C2CC(=O)Nc3sc(C(N)=O)c(N)c32)cc1 (centres undefined),7%
O=C1N(c2ccc(Cl)c(Cl)c2)CN(Cc2ccccc2)CN1n1cnnc1,127%
Cc1noc(/C=C/N(C)C)c1S(=O)(=O)N1CCCC(C(=O)NC2CCCCC2C)C1 (centres undefined),89%
CCOC(=O)N1CCN(c2c(NC3CCN(Cc4ccccc4)CC3)c(=O)c2=O)CC1,4µM*[single pt active]
Cc1sc2ncnc(OCC(=O)NCC3CCCO3)c2c1C (centres undefined),-6%
CCOC(=O)c1[nH]c2ccc(OCC)cc2c1NC(=O)CN1CCN(c2ccccc2)CC1,79%
CCCCn1ccnc1C(=O)c1cccc(S(=O)(=O)N2c3ccccc3CC2C)c1 (centres undefined),17%
CCOc1ccccc1NC1c2ccccc2C(=O)N1Cc1ccco1 (centres undefined),40%
O=C(c1ccncc1)N1CCC2(CCCN(c3cccc(-c4ccccc4)c3)C2)CC1,129%
COc1cccc(NC2=CC(=O)CC(C)(C)C2)c1,-12%
Cc1cccc(-c2nnc(SCC#N)n2Cc2ccccc2)c1,28%
Cc1cc(CCN2CCC(=O)NC2=O)ccc1OC(C)C,8%

# Ordered by count of non-hydrogen atoms (low to high): some entries from above.
SMILES,AmpC inh no det
Cc1cc(CCN2CCC(=O)NC2=O)ccc1OC(C)C,8%
Cc1noc(/C=C/N(C)C)c1S(=O)(=O)N1CCCC(C(=O)NC2CCCCC2C)C1 (centres undefined),89%
CCOC(=O)c1[nH]c2ccc(OCC)cc2c1NC(=O)CN1CCN(c2ccccc2)CC1,79%

# Back to the main list, repeating the 2 entries before the break.
SMILES,AmpC inh no det
Cc1cccc(-c2nnc(SCC#N)n2Cc2ccccc2)c1,28%
Cc1cc(CCN2CCC(=O)NC2=O)ccc1OC(C)C,8%
COc1cc(NC(=O)C2CCCN2S(=O)(=O)c2cccc3cccnc23)cc(OC)c1OC (centres undefined),9%
COc1cc(OC)cc(C(=O)Nc2ccc(-c3nc4ccccc4o3)c(O)c2)c1,-4%
CC1=C[C@@H]2c3cccc4[nH]cc(c34)C[C@H]2N(C)C1,10%
O=C(Cn1cnc2ccccc2c1=O)c1c[nH]c2ccccc12,-8%
COc1ccc(OC)c(-n2c(N)c(C(=O)NCC3CCCO3)c3nc4ccccc4nc32)c1 (centres undefined),131%
C1CCC(n2nnnc2CN2CCCC2)CC1,-9%
Cc1oc(/N=C/c2ccc(Cl)cc2Cl)c(C#N)c1C,-8%
O=C(c1csnn1)N1CCC2(CCCN(c3ccncc3)C2)CC1,30%
O=c1c(CCc2ccccc2)nc2cncnc2n1Cc1ccc(F)cc1,20%
CCS(=O)(=O)N1CCC(C(=O)NCCC2=CCCCC2)CC1,9%
CCn1cc(C(=O)O)c(=O)c2cc(S(=O)(=O)N(C)C)ccc21,0%
COc1ccc2nc(C)c3cc(C)oc3c2c1,31%
CC(=O)N1CC=CC1(CC(C)C)C(=O)NCCc1c[nH]c2ccccc12 (centres undefined),52%
CCC(C)(C(=O)NC1CCCC1)N(C(=O)CNC(C)=O)c1ccccc1 (centres undefined),-3%
O=C(C1CCN(c2ncnc3c2sc2cccc(F)c23)CC1)N1CCOCC1,111%
Cc1ccc(SCCCCN2C(=O)NC(C)(C)C2=O)cc1,24%
COc1ccc(NC(=O)CCS(=O)(=O)c2ccc3c(c2)CCCN3C(C)=O)cc1,6%
Cc1ccc2[nH]c3nc(SCCN4CCOCC4)nnc3c2c1,20%
CN1CCN(CCC(=O)Nc2ccccc2Cl)CC1,-9%
CC(C#N)CCC#N (centres undefined),-4%
Cn1c(CCCOc2ccc(Cl)cc2Cl)nnc1SCC(=O)Nc1nccs1,89%
COC(=O)C1C2C=CC3(CN(C(C)C)C(=O)C13)O2 (centres undefined),7%
O=c1cc(N2CCOCC2)[nH]c(=O)n1C1CCCCC1,-2%
CC(C)Cn1cnc2c(N)nc3ccccc3c21,6%
O=C(CC1CCCC1)Nc1nc2ccccc2[nH]1,-16%

# More results.
SMILES,AmpC inh no det
Cc1ccc(C(=O)CSc2nc3cccnc3n2C)cc1,2%
O=C(NCCc1c[nH]c2ccccc12)C(F)(F)C(F)F,-8%
Cc1ccc2nc(NCCCN3CCOCC3)c(C=NCCCN3CCOCC3)c(=O)n2c1,19%
CCSc1ccc2nnc(-c3cccc(F)c3)n2n1,36%
O=C1N(CN2CCN(c3cccc(Cl)c3)CC2)c2ccccc2C12OCCCO2,11%
O=C(Nc1ccc(Cl)c(Cl)c1)Nc1cc(C(=O)N2CCOCC2)ccc1N1CCCCC1,18%
c1ccc(OCCSc2nnnn2-c2ccccc2)cc1,14%
O=C(c1cccc(C(F)(F)F)c1)N1CCCCCC1,15%
OCc1cn(-c2ccccc2)nc1-c1ccc(-c2nn(-c3ccccc3)cc2CO)cc1,6%
O=S(=O)(CCc1nnc(-c2ccccc2)o1)c1ccc2ccccc2c1,31%
CCCOC(=O)COc1cc(C)cc2oc(=O)c3c(c12)CCC3,11%
O=C(CSc1nc2ccccc2s1)c1sc2sc3ccccc3[n+]2c1O,4µM*[single pt active]
C(=NCCCN1CCOCC1)c1ccc2c(c1)OCO2,13%
Cc1cc(C(=O)Nc2c(C)n(C)n(-c3ccccc3)c2=O)c(C)o1,0%
CCN(CC)S(=O)(=O)c1ccc(NC(=O)Cn2cnc3ccccc3c2=O)cc1,0%
COCCn1c(C)cc(C(=O)CSc2nncn2-c2ccccc2)c1C,29%
CN(c1ccc(C(=O)NCc2cccnc2)cc1)S(C)(=O)=O,-10%
COc1cccc(-c2nn(-c3ccccc3)cc2C(=O)O)c1,-19%
CC(C)N(C#N)c1nc(N2CCOCC2)nc(N2CCOCC2)n1,32%
COc1ccc(C(=O)Oc2ccc3c(c2)OCO3)cc1OC,33%
CN1CCN(C2=C(Cl)C(=O)N(C3CCCCC3)C2=O)CC1,35%
CC(C)(C)n1nc2c(c1NC(=O)c1ccc(S(=O)(=O)N3CCCC3)cc1)CSC2,7%
O[C@@](CCN1CCCCC1)(c1ccccc1)C1CCCCC1,-2%[12.8 µM]
CCOC(=O)C1CCCN(C(=O)c2ccccc2Oc2ccccc2)C1 (centres undefined),66%
CCCS(=O)(=O)N1CCN(Cc2ccccc2OCC)CC1,11%

# Copied from the list:
# CCSc1ccc2nnc(-c3cccc(F)c3)n2n1 in AmpC inh no det shows 36%
# Cc1ccc2nc(NCCCN3CCOCC3)c(C=NCCCN3CCOCC3)c(=O)n2c1 in AmpC inh no det shows 19%
# O=C(c1cccc(C(F)(F)F)c1)N1CCCCCC1 in AmpC inh no det shows 15%
# CCCS(=O)(=O)N1CCN(Cc2ccccc2OCC)CC1 in AmpC inh no det shows 11%

# Next part:
SMILES,AmpC inh no det
c1ccc2c(c1)nc(N1CCOCC1)c1nnnn12,-7%
CCCC1(CCC)NC(=O)N(CC(=O)Nc2ccccc2OC)C1=O,-5%
Cn1c(=O)cc(SCC(=O)N2CCOCC2)c2ccc(Cl)cc21,55%
CCCCn1c(C(C)NC(=O)c2cccs2)nc2ccccc21 (centres undefined),19%
COc1ccc(S(=O)(=O)N2CCCC(C(=O)N3CCOCC3)C2)cc1C (centres undefined),-3%
O=C(O)CSc1nnc(C2CC2)n1-c1ccccc1,-4%
COc1ccc(CNC(=O)CN(CC2CCCO2)C(=O)CNS(=O)(=O)c2ccc(C)cc2)cc1 (centres undefined),76%
CCCOc1c(Br)cc(C(=O)NCC)cc1OC,22%
CCCCN(CC)CCNC(=O)c1cc2c(=O)n(C)c3ccccc3c2n1C,4µM*[single pt active]
Cc1ccc(CSc2nc3c(c(=O)[nH]2)CCC3)cc1,1%
O=C(CCCN1C(=O)c2ccccc2C1=O)N1CCN(c2ccccn2)CC1,34%
COc1ccccc1N1CCN(Cc2c(F)cccc2F)CC1,13%
O=C(CCC1CC(=O)Nc2ccccc21)NCc1cccnc1 (centres undefined),15%
N#CCCn1c(=O)c(CCc2ccccc2)nc2cnc(Oc3cccc(Cl)c3)nc21,9%
Cc1cc(C)c(NC(=O)CS(=O)CC(=O)Nc2cccnc2)c(C)c1 (centres undefined),17%
COC(=O)C1CCN(c2cc(=O)n(Cc3ccc(F)cc3)c(=O)[nH]2)CC1,8%
C=C(C)Cn1c(NCCOC)nc2c1c(=O)[nH]c(=O)n2C,-14%
CN(C)c1cc(NC(=O)CN2CCOCC2)c2ccccc2n1,4µM*[single pt active]
CCC1Cc2c(nc3c4c(nc(N5CCOCC5)c(C#N)c24)NC(C)=N3)O1 (centres undefined),56%
CS(=O)(=O)N(CC(=O)N1CCN(c2ccccc2)CC1)C1CCCCC1,46%
COC(=O)[C@H](C(C)C)n1c(C)c(C(C)=O)c(C(C)=O)c1C,6%
CC(=Nc1ccc(C)c(C)c1)C1=C(O)CSC1=O,-6%
N#Cc1cnc(SCCc2ccccc2)nc1N,-7%
COc1cccc(NC(=O)c2nnn(CCc3ccccc3)c2N)c1,4µM*[single pt active]
COc1ccc(Oc2ncc3nc(C)c(=O)n(Cc4cccc(OC)c4)c3n2)cc1,124%

# (cont.)
SMILES,AmpC inh no det
N=C1C(c2nc3ccccc3s2)=C(O)CN1Cc1ccco1,-8%
CCOC(=O)N1CCC(NC(=O)C2CCN(c3nc(-c4ccc(OC)cc4)no3)CC2)CC1,79%
c1ccn2c(CNc3ncnc4sccc34)nnc2c1,-6%
Clc1cccc(Nc2ncnc3c2cnn3-c2ccccc2)c1,-13%
COc1ccc(NC(=O)C2CCN(S(=O)(=O)c3cccc4cccnc34)CC2)cc1,4%
COC(=O)[C@H](CCSC)NC(=O)Nc1cc(C)ccc1C,-6%
O=C(c1cccc(F)c1)N1CCN(c2cccc(C(F)(F)F)c2)CC1,51%
COc1cc(NCCC(=O)O)c2ncccc2c1,3%[5.75 µM]
COCCn1c(=O)c(CCc2ccccc2)nc2cnc(OCc3ccccc3)nc21,47%
O=C1[C@@H]2C(Cc3ccc(O)cc3)NC3(C(=O)Nc4ccc(F)cc43)[C@@H]2C(=O)N1c1ccc(F)cc1 (some centres undefined),8%
CC1=C(C(N)=O)C(c2ccncc2)n2nc(-c3ccccc3Cl)nc2N1 (centres undefined),4%
CCN(CC)c1ccc(NC(=O)c2ccc(Br)o2)c(C)c1,5%
CCOc1ccccc1N(CC(=O)NCC1CCCO1)C(=O)CCC(=O)Nc1ccccn1 (centres undefined),48%
Nc1ccc(S(=O)(=O)NC(=O)c2ccccc2)cc1,-10%[12.8 µM]
Cc1ccccc1Nc1nc(N)nc(CN2C(=O)NC3(CCCCC3C)C2=O)n1 (centres undefined),26%
COc1ccc(-c2noc(CSc3nnc(Cc4ccccc4)n3-c3cccc(C)c3)n2)cc1OC,90%
COc1ccc(Cn2nnnc2C(c2ccncc2)N2CCOCC2)cc1 (centres undefined),12%
C=CCn1c(SCC(=O)NCc2ccco2)nnc1-c1ccc2ccccc2n1,-7%
COCC(C)NC(=O)c1cc(-c2ccc(OC)c(OC)c2)on1 (centres undefined),-1%
CCc1ccc(-c2ccc(C(=O)O)cc2)nc1,6%
CC(=O)N(Cc1ccc2c(c1)OCO2)C1CC(=O)N(CCc2ccccc2)C1=O (centres undefined),78%
FC(F)(F)c1ccccc1-c1cncnc1NCCc1cnc[nH]1,8%
CSC1=NC(NCCCO)c2c(sc3c2CC(C)(C)OC3)N1 (centres undefined),52%
CCCn1c(=O)c(C(=O)NCc2ccccn2)c(O)c2ccccc21,54%
CCOCCCNC(=O)CN1CCN(Cc2ccccc2C)C1=O,15%

# Laid out differently: 3 of the compounds above.
structure	AmpC inh no det
COc1ccc(-c2noc(CSc3nnc(Cc4ccccc4)n3-c3cccc(C)c3)n2)cc1OC	90%
CC(=O)N(Cc1ccc2c(c1)OCO2)C1CC(=O)N(CCc2ccccc2)C1=O (centres undefined)	78%
COc1cc(NCCC(=O)O)c2ncccc2c1	3%[5.75 µM]

# The listing continues:
SMILES,AmpC inh no det
CC(C)(C)c1ccccc1OCC(=O)Nc1ncn[nH]1,-2%
CCCCn1c(=O)cc(O)c2ccccc21,-3%
Cc1ccccc1-c1nccc(-n2ccnc2)n1,20%
Cc1ccc(C(=O)CSc2nc3cc(S(=O)(=O)N4CCOCC4)ccc3o2)cc1,78%
CCOC(=O)c1ccc2[nH]c(C)c(CN3CCN(C)CC3)c(=O)c2c1,-1%
Cc1cc(NS(=O)(=O)c2ccc(NC(=O)CN3C(=O)c4ccccc4C3=O)cc2)nc(C)n1,-2%
CCC(C)(C)NC(=O)CN(C(=O)CCC(=O)Nc1cc(C)ccn1)c1ccc2c(c1)OCO2,54%
Cn1c(=O)c2c(SCc3ccccn3)nc(-c3ccccc3)nc2n(C)c1=O,1%
COc1ccc2[nH]c(=O)c(C(c3nnnn3CC3CCCO3)N3CCc4ccccc4C3)cc2c1 (centres undefined),73%
